Screening data (PubChem)
PABP FP inh: blocks human PABP binding to poly(A) RNA. P11940. fluorescence polarization. inhibition, % at 35 µM. 1% of 290,000 active. AID 2014;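 active = 50% or more with normal probe brightness, or confirmed in later tests; inconclusive = above 50% with abnormal brightness, or retests that disagree; inactive = below 50% or failed in later tests; about a fifth of its hits are not listed in these tables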;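 also: calls also rest on retests at 20 µM and on dose response follow-up; controls were probe without protein and protein plus probe with vehicle; some compounds called inactive have numbers as strong as hits; many hits fall short of the cut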
UUG fidelity: modulators of start codon recognition fidelity in yeast; S. cerevisiae UUG-firefly luciferase reporter, luminescence/redox ratio; activity score, % at 18.7 µM; 0.13% of 350,000 active;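 active = replicate mean at a twofold rise or more, about +100% in these data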;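 also: firefly luciferase made from a UUG start codon reports start codon fidelity; reporter light over untreated wells divided by growth signal over untreated wells; some hits fall short of that in this replicate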
CSC inhib: cancer stem cell inhibition | cancer stem cell-like cells viability, luminescence | inhibition, % at 7.5 µM | 1.1% of 300,000 active;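 active = mean at 75% or more and at least half the replicates too; inconclusive = mean and replicates disagree; tested in HMLE shEcad cells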;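 also: 0% = median of negative and 100% = median of positive control wells; the first replicate is given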
eIF4H FP inh: inhibitors of RNA binding by human eIF4H; eIF4H fluorescence polarization binding assay; inhibition, % at 35 µM; 0.94% of 290,000 active; AID 2012;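 active = 50% or more with normal probe brightness, or confirmed in later tests; inconclusive = above 50% with abnormal brightness, or retests that disagree; inactive = below 50% or failed in later tests; about a fifth of its hits are not listed in these tables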;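 also: calls also rest on retests at 20 µM and on dose response follow-up; 0% = protein and probe with vehicle and 100% = probe without protein; strong numbers were not always called active; many hits fall short of the cut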
MT1-MMP act inh: MT1-MMP (human) activation inhibition | P50281 | HT1080 RFP-PRO-GFP cells, GFP/RFP ratio fluorescence, overnight; percent of plate control window, DMSO zero | GFP/RFP ratio change, % at 20 µM | 0.061% of 360,000 active | AID 651647;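 active = GFP/RFP ratio change of at least 30% with cell ATP level not reduced by more than half and red fluorescence within 50% of control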; also: strong numbers were not always called active
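Compound: 20 µM single dose, 1% DMSO / System: HT1080 RFP-PRO-GFP cells / Controls: DMSO and RFP-L50D-GFP cell wells / Read-out basis: GFP/RFP fluorescence ratio / Schedule: overnight compound exposure at 37 °C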
Rce1 inh: inhibitors of yeast Ras-converting enzyme; Q03530; yeast membranes, quenched prenylated peptide cleavage fluorescence; calls only; 0.27% of 290,000 active;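 active = fall in fluorescence gain of 50% or more versus controls, with final raw signal at or below 3038400; inconclusive = same 50% fall but final raw signal above 3038400; inactive = fall in fluorescence gain under 50%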;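 also: plate controls were neutral control wells for no effect and wells lacking membranes for full effect; tested at 10 µM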
Target sequence (Q03530 whole entry, looked up): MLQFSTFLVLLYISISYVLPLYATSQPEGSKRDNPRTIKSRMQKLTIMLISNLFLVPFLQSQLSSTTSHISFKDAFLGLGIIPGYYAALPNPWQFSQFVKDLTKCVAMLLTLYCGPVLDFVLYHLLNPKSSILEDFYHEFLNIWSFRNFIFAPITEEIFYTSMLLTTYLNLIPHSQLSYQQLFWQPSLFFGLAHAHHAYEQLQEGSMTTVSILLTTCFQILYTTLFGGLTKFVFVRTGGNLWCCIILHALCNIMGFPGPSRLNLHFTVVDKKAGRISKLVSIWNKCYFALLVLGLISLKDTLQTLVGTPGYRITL
HIV Env fusion: inhibitors of HIV Env-mediated cell fusion. HeLa-JRFL Env/CEM21 cell fusion, luciferase. inhibition, % at 12.3 µM. 1.1% of 360,000 active;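 active = mean replicate inhibition score of at least 50 and every replicate individually at or above 50; inconclusive = only one of the two criteria met; inactive = mean below 50 and not all replicates reaching 50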;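 also: 0% = plate neutral controls and 100% = maraviroc near 300 nM; one replicate is shown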
eIF4H FP inh retest: further read-out of eIF4H FP inh, marked with its call; inhibition, %; compound at 20 µM; confirmation average;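 mean of two retest wells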
PABP FP inh retest: second read-out of PABP FP inh, no call of its own (marks repeat the call); inhibition, %; compound at 20 µM; confirmation repeats;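 mean of two retest wells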
MT1-MMP act inh RFP: further read-out of MT1-MMP act inh, marked with its call; RFP signal change, %; measured here: RFP expression control read;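 0 = vehicle wells; hits needed this value within 50% of zero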
* hit, by the source's call; i = inactive; ? = inconclusive; · = not tested or not shown.

SMILES	PABP FP inh	UUG fidelity	CSC inhib	eIF4H FP inh	MT1-MMP act inh	MT1-MMP act inh RFP	Rce1 inh	HIV Env fusion	others
O=C(N/N=C/c1cccc(Cl)c1)C(c1ccncc1)N1CCOCC1 (stereo not drawn)	16.5	-16.2	-9.4	1.8	3.4	4.8	i	2.3
Cc1nn2c(c1-c1ccccc1)NC1=C(C(=O)CCC1)C2c1ccccc1 (stereo not drawn)	6.6	·	-12.1	4.9	9.2	5.2	i	43.2
NC(=O)c1ncn([C@@H]2O[C@H](CNCc3ccc(OCC(=O)Nc4ccccn4)cc3)[C@@H](O)[C@H]2O)n1	·	-19.0	·	·	-0.3	2.7	·	-4.1
COc1ccc(OC)c(C(=O)NC(CC(N)=O)c2ccc(N3CCCCCC3)c([N+](=O)[O-])c2)c1 (stereo not drawn)	4.3	-2.7	-18.7	-4.3	3.4	6.8	i	13.8
COc1ccc(-n2c(=O)c3ccccc3n(CC(=O)NCc3ccco3)c2=O)cc1	-10.8	-15.4	-8.1	50.9	-3.7	1.6	i	-2.8	eIF4H FP inh retest=-2.3;PABP FP inh retest=6.4
Cc1cc2nc(CO)[nH]c2cc1C	5.5	-10.8	-0.6	9.9	0.5	4.5	i	-0.5
O=C(CN(Cc1ccccc1)S(=O)(=O)c1ccc(Br)cc1)N/N=C/c1ccccc1C(=O)O	10.1	4.6	-1.3	2.5	-7.1	-1.1	i	3.4
O=C(NCc1ccc(Cl)cc1)c1ccc2ccccc2n1	3.3	-16.4	-5.9	-6.8	-0.7	1.1	i	-33.8
Cc1cc(C)n2nc(C(=O)OCC(=O)N3C(C)CCCC3C)nc2n1 (stereo not drawn)	·	10.9	·	·	4.9	-0.5	i	9.7
COc1ccccc1NS(=O)(=O)c1cc(NC(=O)C2CCCO2)ccc1C (stereo not drawn)	·	-9.6	-5.6	·	0.1	-0.6	·	·
CN(C)/N=C/c1cc(Cl)cc([N+](=O)[O-])c1O	-15.1	-15.8	-6.0	0.2	-3.5	-5.9	i	5.1
COc1ccc(CN(C(=O)Cc2cccs2)C(C(=O)NC2CCCC2)c2ccncc2)cc1 (stereo not drawn)	0.4	-10.1	-30.6	4.2	-14.7	-5.6	i	·
c1ccc(-c2nc(N3CCOCC3)c3ccccc3n2)nc1	20.1	-12.8	-9.6	2.3	7.0	-7.3	i	?
CCOP(=O)(OCC)C(Nc1ccccn1)c1ccccc1 (stereo not drawn)	14.0	·	4.7	3.9	4.6	4.7	i	·
O=C(O)c1cc(-c2ccc(Cl)cc2)n(-c2ccc(F)cc2)n1	1.8	-4.9	4.5	-4.7	3.4	8.2	i	-2.3

The final 5 compounds of the section above open the next one.
SMILES	PABP FP inh	UUG fidelity	CSC inhib	eIF4H FP inh	MT1-MMP act inh	MT1-MMP act inh RFP	Rce1 inh	HIV Env fusion	others
CN(C)/N=C/c1cc(Cl)cc([N+](=O)[O-])c1O	-15.1	-15.8	-6.0	0.2	-3.5	-5.9	i	5.1
COc1ccc(CN(C(=O)Cc2cccs2)C(C(=O)NC2CCCC2)c2ccncc2)cc1 (stereo not drawn)	0.4	-10.1	-30.6	4.2	-14.7	-5.6	i	·
c1ccc(-c2nc(N3CCOCC3)c3ccccc3n2)nc1	20.1	-12.8	-9.6	2.3	7.0	-7.3	i	?
CCOP(=O)(OCC)C(Nc1ccccn1)c1ccccc1 (stereo not drawn)	14.0	·	4.7	3.9	4.6	4.7	i	·
O=C(O)c1cc(-c2ccc(Cl)cc2)n(-c2ccc(F)cc2)n1	1.8	-4.9	4.5	-4.7	3.4	8.2	i	-2.3
COc1ccc(Br)cc1S(=O)(=O)NCCCN1CCOCC1	-6.3	·	-4.8	-5.8	0.0	3.7	i	-7.5
Cc1ccc(CN=c2c([N+](=O)[O-])nn(-c3ccc4c(c3)OCCO4)n2O)cc1	-0.3	-3.3	0.0	-12.4	4.7	-3.6	i	·
CC1(C)CC(=O)N(CC(=O)NC2CCCC2)c2ccccc2S1(=O)=O	-2.1	-20.5	-2.1	-8.5	10.9	8.8	i	-5.9
COc1ccc(COC(=O)CN2C(=O)NC3(CC(C)CC(C)(C)C3)C2=O)cc1F (stereo not drawn)	·	·	-0.2	·	1.7	-3.4	·	5.6
CCOc1ccc(C(=S)NC2CCCCC2)cc1OC	0.2	-23.9	-2.9	11.1	-0.5	-3.4	i	·
O=C(NN1CCOCC1)c1cc(-c2cccc(Cl)c2)nc2ccccc12	0.2	·	-9.4	-2.6	1.1	-3.6	i	·
C/C(=N\NC(=O)c1ccc(CSc2nncn2C)cc1)c1ccc(Cl)cc1	-3.7	·	-7.6	2.1	-5.3	-4.5	i	-30.0
C/C(=N/NC(=O)CN1CCN(Cc2ccccc2Cl)CC1)c1cccnc1	-0.1	-6.1	9.1	-1.0	5.6	0.0	i	-14.4
Cc1ccc(/C=N/c2sc3c(c2C(N)=O)CCCC3)o1	16.5	-19.7	33.3	73.6*	-0.4	-2.7	i	1.5	eIF4H FP inh retest=83.1*;PABP FP inh retest=22.4
COc1ccc(CCN(C)CC(=O)Nc2cc(C)nc3ccccc23)cc1OC	5.1	-14.2	-8.5	9.4	3.7	-7.1	i	11.6
CSc1ccccc1C(=O)OCC(=O)N1CCCCCC1	·	-1.7	·	·	2.8	1.5	·	-18.0
COC(=O)c1cccc(NC(=O)NC23CC4CC(CC(C4)C2)C3)c1	9.0	-9.0	-3.3	-3.4	1.6	-3.0	i	-38.9
CC(C)c1ccc(S(=O)(=O)c2cc3cc(Br)ccc3oc2=O)cc1	-13.1	·	50.1	4.4	-24.6	-30.6	i	28.3
CCCNC(=O)c1c(O)c2c([nH]c1=O)CCCC2	-9.6	-20.9	-8.8	-3.9	0.1	-1.9	i	7.5
C=CCN1C(=O)CN=C1Nc1ccc(OC)cc1OC	13.9	-14.9	-10.4	8.9	1.8	0.7	i	·

In the list so far, these contain an NH in an aromatic ring:
SMILES	PABP FP inh	UUG fidelity	CSC inhib	eIF4H FP inh	MT1-MMP act inh	MT1-MMP act inh RFP	Rce1 inh	HIV Env fusion	others
Cc1cc2nc(CO)[nH]c2cc1C	5.5	-10.8	-0.6	9.9	0.5	4.5	i	-0.5
CCCNC(=O)c1c(O)c2c([nH]c1=O)CCCC2	-9.6	-20.9	-8.8	-3.9	0.1	-1.9	i	7.5

(list continues)
SMILES	PABP FP inh	UUG fidelity	CSC inhib	eIF4H FP inh	MT1-MMP act inh	MT1-MMP act inh RFP	Rce1 inh	HIV Env fusion	others
Cn1cc(/C=N/NC(=O)COc2ccccc2[N+](=O)[O-])c2ccccc21	-3.2	·	15.8	-8.1	0.8	4.1	i	-16.2
COc1ccc(-c2cnc3c(NC(C)=O)cc(-c4ccc(S(C)(=O)=O)cc4)cn23)cc1OC	·	2.6	·	·	-2.5	2.2	·	-7.8
O=C(CCNS(=O)(=O)c1ccc(F)c(F)c1)NCCN1CCOCC1	·	-15.2	-7.0	·	2.2	3.2	·	·
S=C(NCc1ccco1)N/N=C/c1ccccc1Cl	-3.7	·	-9.7	-7.9	-2.3	-0.8	i	·
CN(Cc1ccccc1)c1c([N+](=O)[O-])c(=O)n(C)c2ccccc12	3.3	·	9.8	-9.8	0.6	-6.9	i	5.3
CCCCN1C(=O)/C(=C/C=C2\SCCN2C)SC1=S	-3.1	·	·	?	-102.9	9.8	i	-28.8
COc1ccccc1OCCn1c(SCC(N)=O)nc2ccccc21	-0.3	-17.6	-7.9	13.3	1.3	0.9	i	-14.3
O=C(/C=C/[C@H]1O[C@@H](n2cnc3c(NC(=O)c4ccccc4)ncnc32)[C@H](O)[C@@H]1O)NCC(c1ccccc1)c1ccccc1	·	-7.5	·	·	1.9	2.7	·	32.8
C=CCNCc1cccn1-c1sc2c(c1C#N)CCCC2	1.7	-10.7	12.9	-5.2	0.3	1.4	i	17.5
Cc1ccc(C2(C)NC(=O)N(CC(=O)N3CCN(S(=O)(=O)c4cccc(F)c4)CC3)C2=O)cc1 (stereo not drawn)	7.2	-10.2	3.8	3.2	-1.5	-1.4	i	-26.2
CCCNC(=O)NC(=O)CSc1nc2ccccc2c(=O)n1Cc1ccncc1	1.0	-16.5	-0.7	-8.1	-13.7	-6.1	i	17.3
Cc1ccc(C(=O)c2ccccc2C(=O)OCC(=O)NCCc2ccc(Cl)cc2Cl)cc1	-9.3	-1.3	10.2	-2.7	-3.5	-4.4	i	-8.5
COc1ccc(-c2nc(C)ncc2-c2ccccc2)c(O)c1	1.0	-3.8	0.6	3.5	-7.5	-6.5	i	12.5
Fc1ccccc1CSc1ncnc2c1ncn2C1CCCCO1 (stereo not drawn)	·	-9.1	·	·	-1.4	-2.8	·	-64.6
CCOC(=O)c1cnc2nc[nH]n2c1=O	4.5	-18.9	-8.8	-4.5	0.1	3.2	i	2.2

Overlap with the part before: two compounds; new compounds follow.
SMILES	PABP FP inh	UUG fidelity	CSC inhib	eIF4H FP inh	MT1-MMP act inh	MT1-MMP act inh RFP	Rce1 inh	HIV Env fusion	others
Fc1ccccc1CSc1ncnc2c1ncn2C1CCCCO1 (stereo not drawn)	·	-9.1	·	·	-1.4	-2.8	·	-64.6
CCOC(=O)c1cnc2nc[nH]n2c1=O	4.5	-18.9	-8.8	-4.5	0.1	3.2	i	2.2
COc1ccc(-c2c(-c3ccccc3OC)oc3ccccc23)cc1F	·	-16.6	25.8	·	-2.6	-1.9	·	-22.1
CC(C)c1ccc(NC(=S)NCc2cccs2)cc1	8.6	-21.0	2.1	-8.5	12.9	-0.2	·	-91.8
CC(C)(C)c1csc(NC(=O)CS(=O)(=O)c2ccccc2)n1	-2.1	-5.1	-20.2	-8.0	-5.2	-2.2	i	-4.9
COC(=O)Cn1ncc(N(C)Cc2ccccc2)c(Cl)c1=O	-5.7	-24.3	-1.3	-7.3	1.0	0.4	i	-9.8
COCCCn1c(C)csc1=Nc1cccnc1	-11.3	·	·	4.1	-2.4	1.6	i	15.0
Nc1nc(Nc2ccccc2F)nc(N2CCOCC2)c1[N+](=O)[O-]	-1.4	·	-15.7	-8.3	4.3	2.4	i	0.4
CCOc1ccccc1NC(=S)NCCCn1ccnc1	-10.9	-13.3	-14.3	-6.0	-1.2	3.9	i	1.6
O=C(NC1CCCC1)C(c1ccncc1)N(C(=O)c1csnn1)c1ccc(F)cc1 (stereo not drawn)	2.3	-6.0	-11.0	0.6	3.0	3.9	i	5.6
CCN1CCN(CC(=O)Nc2cc(S(=O)(=O)N(CC)c3ccccc3)ccc2Cl)CC1	·	3.2	23.3	·	-0.9	-0.7	·	-1.6
O=C(Nn1cnnc1)c1ccc([N+](=O)[O-])cc1	-3.0	2.4	-12.4	-10.5	2.7	3.5	i	-5.8
Cc1ccc(C)c(OCCC(=O)NCCc2ccc(F)cc2)c1	-2.5	-3.8	-13.5	4.5	3.0	4.9	i	-6.9

This is a subset; rates above refer to the full screens.
